Screens (PubChem)
RVFV N-RNA inh: inhibitors of RVFV nucleoprotein–RNA binding, primary screen, biochemical, fluorescence polarization | P21700 | RVFV N-RNA binding; hits give low values | % bound, % (test concentration not listed) | 20,000 tested, 0.1% active;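 active means between 0 and 58% in either replicate with normal brightness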;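 further: 100 nL library stock added to about 12 µL; 100% = protein and probe without compound and 0% = probe alone; numbers are from one replicate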
Target sequence (P21700 whole entry, looked up): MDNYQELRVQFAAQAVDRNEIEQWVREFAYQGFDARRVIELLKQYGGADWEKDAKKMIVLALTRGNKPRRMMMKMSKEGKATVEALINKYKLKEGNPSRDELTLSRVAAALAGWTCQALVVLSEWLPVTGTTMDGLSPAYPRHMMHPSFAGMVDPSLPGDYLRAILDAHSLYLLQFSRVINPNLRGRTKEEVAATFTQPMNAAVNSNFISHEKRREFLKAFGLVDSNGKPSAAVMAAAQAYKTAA
* hit, by the source's call; & = joins results of further samples. Not all compounds are listed; the hit share may differ from the screen's.

SMILES	RVFV N-RNA inh
CC(C)(Oc1ccc(Cl)cc1)C(=O)N1CCC2(CC1)NC(=O)c1ccccc1O2	92
CC(C)CN(CC(C)C)C(=O)Cn1cnc2ccccc21	108
COCCN1C(=O)CC(Sc2ncccc2C(=O)O)C1=O (stereo not given)	105
Cc1ccc(C(=O)Nc2nccs2)cc1I	89
CS(=O)(=O)Nc1nc2ccc(Cl)cc2s1	97
Cc1onc(-c2c(Cl)cccc2Cl)c1NC(=O)N(C)N	100
COc1ccc(CCNc2nc(N3CCCC3)nc(N3CCCC3)n2)cc1OC	104
Cc1ccccc1C(=O)c1ccc(Nc2ccc(Br)cc2N)cc1Cl	105
Cc1c(C)c2c(c(C)c1O)CCC(C)(COc1ccc(CC3SC(=O)NC3=O)cc1)O2 (stereo not given)	96
CN1CCC(c2c[nH]c3ccc(O)cc23)CC1	93
CN(C)CCN=CC1=C(O)CC(C)(C)CC1=O	90
Cc1c(C)[n+]([O-])c2ccc3c(non3O)c12	99
Cc1[nH]c2ccccc2c1SCCN	99
O=C(Nc1ccc(-c2ccc(N3CCCC3)nn2)cc1)C(F)(F)F	94
CCN(CC)S(=O)(=O)c1ccc(/C(O)=C2\C(=O)C(=O)N(CCOC)C2c2ccccc2F)cc1 (stereo not given)	96
CC(C)CC(N)=O	104
COc1ccc2c(c1)[C@]13CCCC[C@@H]1[C@H](C2)N(C)CC3	102&94
Cc1nn(Cc2cccc(C(=O)Nc3nc4ccc(S(C)(=O)=O)cc4s3)c2)c(C)c1Cl	92
CC(=O)NC(=O)/C(C#N)=C/N1CCN(c2ccccc2)CC1	96
O=C(O)CSc1cc(Cl)ccc1Cl	94
NS(=O)(=O)c1ccc(NC(=O)CSc2ccccc2)cc1	95
C(=C\c1ccccc1)/CN1CCN(CC2CCCCC2)CC1	101
c1nc(NCCCN2CCOCC2)c2c3c(sc2n1)CCCCC3	95
NC1=NN=C(c2ccccc2)CS1	91
CCn1c(=NC(=O)c2cccs2)sc2cc(OC)c(OC)cc21	102

Molecules from the list above that have a COOH group, in the order listed:
SMILES	RVFV N-RNA inh
COCCN1C(=O)CC(Sc2ncccc2C(=O)O)C1=O (stereo not given)	105
O=C(O)CSc1cc(Cl)ccc1Cl	94

Further records:
SMILES	RVFV N-RNA inh
CN(C(=O)CSc1nc(O)cc(=O)n1-c1ccccc1F)c1ccccc1	95
Cc1nc(-c2ccc(C(=O)N3CCCCC3)cc2)cs1	100
CCOC(=O)c1cc2c(=O)n3cccc(C)c3nc2n(C)c1=N	101
O=C(NCC(c1cccs1)N1CCc2ccccc2C1)C1CC1 (stereo not given)	101
Cc1cc(=O)oc2cc(NC(=O)C3CCC(=O)N3)ccc12 (stereo not given)	110
Cc1cccc(Cn2nc(C(C)(C)C)cc2C(=O)NCc2cccs2)c1	101
Cc1c(O)nc2ccccn2c1=O	105
COCC(C)NC(=O)c1cccc(Cl)c1 (stereo not given)	91
CSc1ccc(CN2CCN(Cc3ccco3)CC2)cc1	97
CCOc1ccc(NC(=O)CS(=O)(=O)c2ccccc2)cc1	99
O=C(NCCO)c1nc(NCCO)c2ccccc2n1	100
C=Cn1c2ccccc2c2cc(I)ccc21	92
CCCCC(=O)Nc1cccc2nc(C)ccc12	92
CCCCc1ccc(NC(=O)Nc2ccc(N3CCN(C)CC3)cc2)c(C)c1	100
C=CCOc1ccc(C(=O)NC2CC(C)(C)NC(C)(C)C2)cc1	93
NC(=O)CN1C(=O)CC(c2ccco2)Sc2ccccc21 (stereo not given)	95
O=C(Nc1ccc2c3c(cccc13)CC2)C1=COCCO1	97
CCOC(=O)CN1C(=O)S/C(=C/c2cc(OC)c(O)cc2Br)C1=O	130
CCCN(CCO)C1CCCC(C)C1 (stereo not given)	100
CC12CC3CC(C)(C1)CC(C(=O)NO)(C3)C2	103
O=C(Oc1ccc(O)cc1)C12CC3CC(CC(C3)C1)C2	101
O=C1N/C(=C/c2ccc(N3CCCC3)cc2)C(=O)N1c1ccccc1	116
O=C(NC(=S)N1CCc2ccccc21)C1CCCC1	89
CCCCn1c(CNC=O)nc2ccccc21	97
CCc1cccc(NC(=O)CSc2nnc(Cc3ccccc3)n2N)c1	101

Following part.
SMILES	RVFV N-RNA inh
O=C(C(c1ccccc1)c1ccccc1)N1CCCCC1	93
Cc1cccc(N)c1-c1c(C)cccc1N	90
O=C(N/N=C/c1ccccc1F)c1ccccc1	96
Oc1[nH]c2ccccc2c1C=NCc1cccc(F)c1	95
C/C(CCc1ccccc1)=N/NS(C)(=O)=O	107
CC1CCCCN1C(=O)c1cc(I)ccc1NC(=O)c1cccnc1 (stereo not given)	99
C/C(=N\OC(=O)c1cccc(C(F)(F)F)c1)c1csc(-c2ccno2)n1	94
O=c1c(O)c(-c2ccc(O)c(O)c2)oc2cc(O)cc(O)c12	93
C#CCn1nnc2ccccc21	99
O=S(=O)(Cc1ccc(Cl)cc1)Nc1ccc2c(c1)OCCO2	94
Cn1c(=O)n(Cc2ccccc2)c(=O)c2c1nc1n2CCCN1c1cccc(Cl)c1	91
C=CCN(CC=C)S(=O)(=O)c1ccc(C(=O)Nc2nnc(-c3cc(C)ccc3C)o2)cc1	94
Oc1ccccc1N=Cc1ccccc1	91
O=C(NO)c1csc(-c2cccnc2)n1	96
O=C(CCS(=O)(=O)c1ccccc1)Nc1ccc2c(c1)OCCO2	97
Cc1cc(SCC(=O)c2ccccc2)nc(=O)[nH]1	83
CSc1nc2ccccc2n1Cc1ccccc1F	96
O=C1N(CCc2ccccc2)c2ccccc2C12OCCCO2	96
CCOc1ccc(NC(=S)NCC2CCCO2)cc1 (stereo not given)	92
COC(=O)c1cnc(N2CCCN(S(=O)(=O)c3cccc4nonc34)CC2)nc1C(F)(F)F	97
CCN(CC)CC(=O)N1N=C(c2cccs2)CC1c1ccco1 (stereo not given)	92
CC1=NN=C(c2ccc(N)cc2)c2cc3c(cc2C1)OCO3	87
CCC(=O)NC1(Cc2ccc(O)cc2)CCCCC1	91
CSc1nc(-c2ccc(Cl)cc2)nn1S(=O)(=O)c1ccc(C)cc1	90
CC(C)NS(=O)(=O)c1ccc(OCC(=O)NC(C)(C)C)c(Cl)c1	97

4 entries from above in another layout:
structure: O=S(=O)(Cc1ccc(Cl)cc1)Nc1ccc2c(c1)OCCO2
  RVFV N-RNA inh: 94

structure: Cn1c(=O)n(Cc2ccccc2)c(=O)c2c1nc1n2CCCN1c1cccc(Cl)c1
  RVFV N-RNA inh: 91

structure: C=CCN(CC=C)S(=O)(=O)c1ccc(C(=O)Nc2nnc(-c3cc(C)ccc3C)o2)cc1
  RVFV N-RNA inh: 94

structure: Oc1ccccc1N=Cc1ccccc1
  RVFV N-RNA inh: 91

Additional structures follow.
SMILES	RVFV N-RNA inh
CCC(=O)Nc1cccc(Br)c1	107
COC(=O)c1ccc(S(=O)(=O)NNc2ncnc3cc(C(C)(C)C)sc23)n1C	101
COc1ccc2nc(NC(=O)CC(C)(C)C)sc2c1	96
COc1cc(NC(=S)N(C)C)cc(OC)c1	91
O=C1Nc2ccc(Br)cc2/C1=C/c1cc2c([nH]1)CCCC2	98
CCCCC(C(=O)O)n1c(O)c(C2=c3ccccc3=NC2=O)sc1=S (stereo not given)	96
CCN(Cc1ccccc1)C(=O)c1cccc(N2C(=O)CCC2=O)c1	91
CSc1nc(C)nc(Sc2ccccn2)c1C#N	93
O=S(=O)(c1cccc2cccnc12)N1CCC(n2cccc2)CC1	94
CCn1c(CNC(=O)c2ccc(C)cc2)nnc1SCC(=O)NCc1ccccc1	90
Cn1cnc2c(Cl)ncnc21	101
CCN(CC)c1ccc(CN2CCCC(CO)C2)cc1 (stereo not given)	101
O=C(CSc1nc(=O)n(CCCN2CCOCC2)c2c1CCCC2)N1CCc2ccccc21	100
CN1CCN(C(CNC(=O)NC2CCCCC2)c2ccc(F)cc2)CC1 (stereo not given)	97
CN[C@@H]1C[C@@H](c2ccc(Cl)c(Cl)c2)c2ccccc21	96&94
CCn1c(C)cc(O)cc1=O	100
N#CC(C#N)=CNc1nccs1	103
Nc1ncnc(N2CCCc3ccccc32)n1	92
CCOC(=O)c1cc(C(N)=S)c(=O)[nH]c1O	112
CCOP(=S)(OCC)Oc1cc(C)nc(C(C)C)n1	98
CSc1nc(N)nc(-c2cccs2)c1C#N	100
CNC(=O)c1cc2c(cn1)[nH]c1ccccc12	98
Cc1ccccc1NC(=O)c1sc(N)c(C(N)=O)c1C	91
COc1ccc2c(c1)c(=O)oc1cc(OC(C)C(=O)O)ccc12 (stereo not given)	89
COc1ccc(C2CC(c3ccc(Br)cc3)=NN2C(=O)CSc2nnc3[nH]c(=O)cc(C)n23)cc1 (stereo not given)	99

More compounds follow:
SMILES	RVFV N-RNA inh
COCc1[nH]c(=S)[nH]c(=O)c1C	91
CS(=O)(=O)N1CCN=C1SCc1ccccc1	99
CC(C)(C)c1ccc(C(=O)Nn2cnc3c(cnn3C(C)(C)C)c2=O)cc1	100
Cc1cc(S(=O)(=O)NCC(C)C)ccc1OCC(N)=O	93
NNC(=O)c1c(NC(=O)c2ccccc2)sc2c1CCC2	89
Cc1cc(OCC(=O)N2CCOCC2)ccc1NC(=O)C1CCCCC1	103
O=S(=O)(c1ccccc1)c1cnc2cc3c(cc2c1N1CCCCC1)OCCO3	89
Cc1noc(C)c1C(=O)O/N=C(/c1cccs1)C(C)(C)C	101
COc1ccc2c(c1)C13CCCCC1C(C2)N(C)CC3 (stereo not given)	101
CC1(C)CC(=O)C2=C(C1)NC(SCC(=O)Nc1ccccc1)=C(C#N)C2c1ccco1 (stereo not given)	96
CC1(C(=O)NCc2ccc3c(c2)OCO3)COC(c2ccccc2)OC1 (stereo not given)	101
COc1ccc(/C=C(/NC(=O)c2ccco2)C(=O)N2CCCCCC2)cc1OC	100
CC(=O)NC(=S)Nc1cccc(C#N)c1	93
O=C(/C=C/c1ccc2c(c1)OCO2)Nc1ccc(S(=O)(=O)N2CCCCC2c2cccnc2)cc1 (stereo not given)	88
NC(=O)OCCCc1ccccc1	94
CCn1cc(CN(C)C(=S)Nc2sc3c(c2C(=O)OC)CCC(C)C3)c(C)n1 (stereo not given)	88
C=CCn1c(Cc2nc3ccccc3[nH]2)n[nH]c1=S	100
COc1ccc(C/C(N)=N/OC(C)=O)cc1OC	90
O=S(=O)(c1ccccc1C(F)(F)F)N1CCN(S(=O)(=O)c2ccccc2C(F)(F)F)CC1	95
CC(Oc1ccc(Cl)cc1Cl)C(=O)N(C)C (stereo not given)	102
CCOC(=O)c1c(C)noc1-c1csc(-c2cccc(C(F)(F)F)c2)n1	94
CCN(CC)C(=O)N1CCC(C(=O)OC)CC1	99
Cc1ccc(C2=NC(=O)/C(=C/c3cc(O)c(O)c(Br)c3)S2)cc1	91
CC(C)(C)/C=N/NC(=O)c1nc(-c2ccc(C(C)(C)C)cc2)no1	98
CCCn1c(=O)c(C#N)cn(-c2ccccc2C)c1=O	94

4 of the compounds above, field by field.
structure: COc1ccc2c(c1)C13CCCCC1C(C2)N(C)CC3 (stereo not given)
  RVFV N-RNA inh = 101

structure: O=C(/C=C/c1ccc2c(c1)OCO2)Nc1ccc(S(=O)(=O)N2CCCCC2c2cccnc2)cc1 (stereo not given)
  RVFV N-RNA inh = 88

structure: CCN(CC)C(=O)N1CCC(C(=O)OC)CC1
  RVFV N-RNA inh = 99

structure: CC1(C)CC(=O)C2=C(C1)NC(SCC(=O)Nc1ccccc1)=C(C#N)C2c1ccco1 (stereo not given)
  RVFV N-RNA inh = 96

(next part)
SMILES	RVFV N-RNA inh
Cc1ccc(N2CCN(C(=O)c3ccccc3)CC2)c(C)c1	98
Fc1ccc(N2CCN(C3C4CC5CC(C4)CC3C5)CC2)cc1 (stereo not given)	102
COc1ccc(C(=O)NCc2nnc(SCC(=O)c3ccccc3)n2C)cc1	97
C[C@@]12CCC(=O)[C@]1(C)CCC2=O	97
Cn1cccc1C=NN1CCN(Cc2ccccc2)CC1	95
Cc1nn(Cc2ccc(C(=O)Nc3cc(Cl)cc(Cl)c3)o2)c(C)c1Br	98
Cc1ccc(CNc2nc3ccccc3s2)s1	101
CCC1=C[C@H]2CN(C1)Cc1c([nH]c3ccccc13)[C@@](C(=O)OC)(c1cc3c(cc1OC)N(C)[C@H]1[C@@](O)(C(=O)OC)[C@H](OC(C)=O)[C@]4(CC)C=CCN5CC[C@]31[C@@H]54)C2	93
CCC[C@@H]1C[C@@H](C(=O)N[C@@H]([C@H]2O[C@H](SC)[C@H](O)[C@@H](O)[C@@H]2O)[C@@H](C)O)N(C)C1	98
CCn1c(C)cc(O)c(C(c2cccc(OC)c2)N2CCN(c3ccccn3)CC2)c1=O (stereo not given)	97
CCn1nnc2c(Nc3cccc(C)c3)ncnc21	91
CCn1c(-c2ccc(C)cc2)cs/c1=N\N=C/c1ccc(O)c(OC)c1	93
CC(C)N(CCC#N)C(=O)Nc1ccc2c(c1)CCO2	94
COc1ccc(Nc2cnc(=O)nc3ccccc23)cc1	96
COC(=O)c1cc(C23CC4CC(CC(C4)C2)C3)oc1C	90
C/C(=N\OC(=O)c1ccccc1)c1cc(-c2ccccc2)no1	106
COC(=O)c1ccc2c(=O)n(NC(C)=O)c(=S)[nH]c2c1	97
C/C=C/C(=O)Nc1ccccc1OC	100
CCOC(=O)Cn1nc(NC(=O)c2ccc(C(=O)OC)cc2)cc1C	103
CN(C)C(=S)Nc1cccc2ccccc12	95
O=C(CSc1nnc2[nH]c(=O)ccn12)NCc1ccc(F)cc1	95
NC(=O)c1ccc(-c2nc(-c3ccc4c(c3)OCCO4)c(-c3ccccn3)[nH]2)cc1	101
CCOC(=O)C1=CN(C)C=C(C(=O)OCC)C1c1ccc(C)c(Br)c1	96
CSc1cccc(NC(=O)CN(C)S(=O)(=O)c2ccccc2)c1	90
CN(Cc1n[nH]c(=S)n1C)S(=O)(=O)c1ccccc1	92
Cn1ncc2c(O/N=C(\N)c3ccc(C(F)(F)F)cc3)ncnc21	94
O=C(OCC1CC1)c1cnc(N2CCOCC2)nc1C(F)(F)F	92
O=C1CC2(CCCC2)CC(=O)N1CCCCN1CCN(c2ncccn2)CC1	100&94&94
C=CC(=O)N1CN(C(=O)C=C)CN(C(=O)C=C)C1	92
CCCN(CCC)S(=O)(=O)c1ccc(C(=O)Nc2nnc(-c3cccc(OC)c3)o2)cc1	107
